NPYLR7 agonist: agonists of mosquito NPYLR7 receptor, primary screen, cell-based, Aedes aegypti, calcium fluorescence, mosquito biting behavior; Aedes aegypti neuropeptide Y-like receptor 7 (NPYLR7); activation, % at 10 µM; hit rate 0.15% among 270,000; HEK293T NPYLR7/Galpha15, GCaMP6s calcium fluorescence; in the data active = activation above about 40%;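 note: 0% = vehicle and 100% = reference agonist at the receptor; some compounds past the cut are filed as inactive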
NPYLR7 agonist max-min: second read-out of NPYLR7 agonist, no call of its own (marks repeat the call); activation, %; measured here: Max-Min RFU normalised activation; some inactives read as strong as hits;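 span of the calcium signal over five minutes; 0% = vehicle and 100% = native peptide agonist; compound fluorescence can raise it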
* hit, by the source's call; & = joins results of further samples. Only part of the results is shown. The share of hits here may be higher or lower than overall.

Below each compound – NPYLR7 agonist	NPYLR7 agonist max-min
COc1cn2c(cc1=O)C(=O)N(CCNC(=O)C1c3ccccc3Oc3ccccc31)CC2
    15	6
Cc1cccc(N2CCN(c3cc(-c4ccccc4)nc4ncnn34)CC2C)c1 (stereo unspecified)
    19	14
COc1ccccc1NC(=O)C1=C(C)NC(=O)NC1c1ccc(Br)cc1 (stereo unspecified)
    -1	-1
COc1cc(OC)cc(C2=NC(=CC3=Cc4ccc(OC)cc4OC3)C(=O)O2)c1
    5	3
CCc1nc(C)ccc1OCC(=O)N1CCN2C(=O)CN(C)C(=O)C2C1 (stereo unspecified)
    6	3
N#Cc1cccc(C(=O)N2CCN(c3ccc(NC(=O)c4ccco4)cn3)CC2)c1
    -2	5
O=C(Nc1c(F)c(F)c(F)c(F)c1F)c1cc(F)cc(F)c1
    3	0
Cc1nc2ccc(I)cn2c1C=NNc1cc(C)c2ccccc2n1
    20	17
O=C1c2cccc3cccc(c23)N1S(=O)(=O)c1ccc(Cl)cc1
    6	3
CCO/N=C(/c1nonc1N)N1CCOCC1
    -9	-12
Cc1cccc(NC(=O)CSc2nc(CC(=O)NCc3cccs3)cc(=O)[nH]2)c1C
    -18	-24
Cc1cc(NC(=O)C(=O)Nc2nc3cc(F)c(F)cc3s2)no1
    10	7
COc1ccc(C(=O)NC2CC2)cc1OC1CCN(Cc2cnn(C)c2C)CC1
    9	2
O=C1/C(=C/c2ccncc2)Oc2cc(OC(=O)N3CCOCC3)ccc21
    0	-3
CCC(=O)N1CCN(c2ccc(Nc3ccccn3)nn2)CC1
    19	12
CCn1ccc(C(=O)Nc2sc3c(c2-c2nc4ccccc4s2)CCN(C)C3)n1
    29	26
O=C(CC1COCCN1)NCC1(c2cccc(F)c2)CCOCC1 (stereo unspecified)
    -5	-5
CCCCN(CC(=O)N1CCc2sccc2C1c1ccc(Cl)cc1)C(=O)N(C)C (stereo unspecified)
    -11	-1
Cn1c(-c2ccc(C3NCCc4[nH]cnc43)o2)nc2ccccc21 (stereo unspecified)
    16	-14
CCCCC(C)n1[nH]c(=O)c2c(C)cc(=O)[nH]c21 (stereo unspecified)
    3	1
COc1ccc(-c2ccno2)cc1S(=O)(=O)N1C[C@H]2CC=CC[C@H]2C1
    4	2
O=C(Cc1ccsc1)Nc1cc(S(=O)(=O)N2CCOCC2)ccc1Oc1ccc(F)cc1
    1	2
CC(C)(C)c1ccc(S(=O)(=O)NC(=O)C2(C)CCN2C(=O)C2CC2)cc1 (stereo unspecified)
    3	4
CCC(C)NC(=O)c1cc(-c2ccc(OC)cc2)n(-c2ccccc2Cl)c1C (stereo unspecified)
    31	29
O=C(CN(Cc1ccccc1)C(=O)c1ccc([N+](=O)[O-])cc1)Nc1cc(-c2ccccc2)nn1-c1ccc(F)cc1
    3	7
CC(c1cccs1)N(C)C(=O)COc1ccc(F)cc1 (stereo unspecified)
    -4	-5
CC(=O)OC(C(=O)N1CC(=O)N2CCc3ccccc3C2C1)c1ccccc1 (stereo unspecified)
    -1	15
[O-][n+]1onc2c1CCc1c-2nc(-c2ccccc2F)n1O
    -9	-15
CC12CC(=O)C(C)(C1)C1C(=O)N(c3ccc(N4C(=O)C5C(C4=O)C4(C)CC5(C)CC4=O)cc3)C(=O)C12 (stereo unspecified)
    -1	-3
O=C(CCCc1ccccc1)Nc1cccc(-c2ccc3nncn3n2)c1
    -13	-5
COc1ccc(OC)c(-c2c(C)c3cc(O)ccc3oc2=O)c1
    -3	-4
CCNC(=O)Cc1c(C)nn(-c2nc(C)cc(C)n2)c1C
    -4	-5
Cc1nn(C)c(Cl)c1CNCC(=O)N(C)C
    -2	-3
CCCS(=O)(=O)N1CCCC(C(=O)NCCCSC2CCCCC2)C1 (stereo unspecified)
    -6	-6
Cn1c(=O)c2c(SCC(=O)NC3(C#N)CCCC3)nc(C(C)(C)C)nc2n(C)c1=O
    -3	-3
CCOC(=O)c1cc(-c2cccc(NC(=O)Cc3ccc(F)cc3)c2)n(-c2cccc(C)c2)n1
    15	8
CCCCCCOCCOCCOC(=O)N1CCC2(CC1)CC(=O)c1c(OC)cc(OC)cc1O2
    -8	-10
O=C(Cn1nnc(-c2cccs2)n1)NC(=O)NCCC1=CCCCC1
    2	-1
O=C(O)CCn1cc(/C=C\C(=O)c2ccc(F)cc2)c(-c2cccc(Cl)c2)n1
    -3	-4
CC(C)(C)OC(=O)N1CCCC1C(=O)Oc1cc2oc(=O)c3c(c2cc1Cl)CCC3 (stereo unspecified)
    1	38
Cc1nnnn1-c1cc(NC(=O)N2CCCCCC2)ccc1F
    7	6
Cc1ccc(-n2nc(-c3ccccc3)cc2NC(=O)CN(C(=O)c2ccc(Cl)cc2Cl)C(C)C)cc1
    20	23
O=C(c1ccccc1)c1ccc2c(c1)N=C1CCCC(=O)C1C(c1cccnc1)N2 (stereo unspecified)
    -6	-9
CCN(c1ccc(Nc2ccc(C#N)cn2)cc1)C(C)C
    -2	-1
CC(C(=O)N(C)C)N1CCC(C(F)(F)F)CC1 (stereo unspecified)
    -8	-12
CC1(C)CC(=O)C2=C(C1)N(CC1CCCO1)C(=O)NC2(C(F)(F)F)C(F)(F)F (stereo unspecified)
    3	-1
CCOCC(=O)Nc1nc(-c2ccc(C)s2)cs1
    -24	-25
COc1cccc(-n2nnc3c(N4CCN(C(=O)C(C)Oc5ccccc5)CC4)ncnc32)c1 (stereo unspecified)
    -9	-19
COc1ccc(Oc2cc(C(C)(C)C)nc(SCc3ccc(F)cc3)n2)cc1
    3	8
Clc1ccc(Oc2cc(N3CCN(CCN4CCOCC4)CC3)ncn2)cc1
    -7	1
COc1ccc(-c2cc(C(=O)N3CCc4ccccc4C3)n(-c3ccc(Cl)cc3)n2)c(OC)c1
    22	24
NC(=O)CCn1c(SC(C(=O)NC2CC2)c2ccccc2)nnc1-c1ccco1 (stereo unspecified)
    2	19
CCNc1ccnc(N2CCC(c3nnc4n3CCCCC4)CC2)n1
    -3	-9
Cc1cccc(CN2C(=O)C3(SCCN3C(=O)c3cccc(Cl)c3)c3cc(C)ccc32)c1 (stereo unspecified)
    3	7
CN(Cc1cccnc1)C(=O)CC1C(=O)NCCN1C/C=C/c1ccccc1 (stereo unspecified)
    0	-3
NS(=O)(=O)c1ccc2[nH]c(=O)c3nnc(-c4ccccc4)n3c2c1
    10	5
CCCCC(=O)Nc1nnc(SCC(=O)Nc2nc3ccccc3s2)s1
    6	10
COc1ccccc1NC(=O)CSc1nc2ccc(C)cc2[nH]1
    -4	-9
Cc1nonc1CN(C)C(=O)c1cccc(NCc2cccnc2)c1C
    15	-3
CC(C)c1nc(CN(C)C(=O)CCC(=O)NC2CCCC2)cs1
    0	-3

Individual results from the list:
Value of Cc1cccc(CN2C(=O)C3(SCCN3C(=O)c3cccc(Cl)c3)c3cc(C)ccc32)c1 (stereo unspecified) under NPYLR7 agonist max-min: 7
Value of CCNc1ccnc(N2CCC(c3nnc4n3CCCCC4)CC2)n1 under NPYLR7 agonist: -3

Full records, looked up by structure. Order of screens: NPYLR7 agonist | NPYLR7 agonist max-min
Listed for `Cc1nonc1CN(C)C(=O)c1cccc(NCc2cccnc2)c1C` → 15 | -3
Listed for `O=C(c1ccccc1)c1ccc2c(c1)N=C1CCCC(=O)C1C(c1cccnc1)N2` (stereo unspecified) → -6 | -9
Listed for `CCCCC(=O)Nc1nnc(SCC(=O)Nc2nc3ccccc3s2)s1` → 6 | 10

(continued)
Below each compound – NPYLR7 agonist	NPYLR7 agonist max-min
Cc1cc(C)cc(NC(=O)Cn2c(=O)n(Cc3ccc4c(c3)OCO4)c(=O)c3oc4ccccc4c32)c1
    -2	-8
COCCN(Cc1cnn(C)c1)C(=O)c1cccc(N)c1
    -2	-5
Nc1cc(-c2cccc(C(F)(F)F)c2)nn1-c1ccc(C(=O)NCC2CCCCC2)cc1
    -8	-9
CCCN1CCc2nc(Nc3ccc(OCc4ccccc4)cc3)ncc2C1
    2	1
COc1cc(NC(=O)CCNS(=O)(=O)c2c(C)noc2C)cc(OC)c1OC
    0	3
CC(C)c1ccc(C(C)NC(=O)c2noc3c2CCCC3)cc1 (stereo unspecified)
    -5	-7
Cc1sc2ccccc2c1-c1nccn1CCN1CCOC1=O
    19	6
O=C(Cc1ccccc1)Nc1ccnn1C1CCN(C(=O)CCN2CCCCO2)CC1
    4&3	0&-2
Cc1sc2ncn(CC(=O)Nc3ccc4c(c3)OCO4)c(=O)c2c1C
    -6	-8
Cc1ccc(-n2c(SCCCC(=O)N3CCN(C(=O)c4ccc(Cl)cc4Cl)C(C)C3)nnc2-c2ccccc2)cc1 (stereo unspecified)
    5	14
CSC(=NS(=O)(=O)c1cccs1)Nc1ccc(N2CCOCC2)cc1
    7	6
CCc1c(C(=O)N2CCOCC2)c(C(C)C)nn1-c1ccc(F)cc1
    8	18
CCCNS(=O)(=O)c1cc(C)c(Br)cc1C
    -4	-6
CN(CC1CCCN(CCc2ccccc2F)C1)C(=O)C1=CCCCC1 (stereo unspecified)
    0	-1
COc1cccc(COC2CN(C(=O)Cc3cccs3)CC(=O)N(Cc3ccccn3)C2)c1 (stereo unspecified)
    14	6
CC=CCn1c(=O)c2c(nc3oc(C)c(C)n32)n(C)c1=O
    5	11
CN1CCN(S(=O)(=O)c2cccc3nsnc23)CC1
    4	2
Nc1n[nH]c2cccc(F)c12
    0	3
O=C(Nc1cccc(C(=O)N2CCCC2)c1)N1CCN(Cc2ccsc2)CC1
    5	2
COc1cccc(-n2nnc(C(N)=O)c2C)c1
    1	-2
N#Cc1cccc(C(=O)N2CCN(C(c3ccccc3)c3ccc(Br)cc3)CC2)c1 (stereo unspecified)
    42*	51*
Cc1ccccc1-n1ncc(C(C)NC(=O)Cc2c(C)[nH]c3c(F)cccc23)c1C (stereo unspecified)
    7	3
COc1ccccc1/C=C/CN1CCC2(CC1)C(=O)N(Cc1cccnc1)C(=O)N2C
    9	-1
Oc1ccc(Nc2nc(N3CCCC3)c3ccccc3n2)cc1
    -7	-9
C=CCn1nc(C(=O)N2CCOCC2)c2c1CCC(N1CCOc3ccc(Cl)cc3C1)C2 (stereo unspecified)
    -3	-4
NC1CCN(Cc2cccc(-c3nc(-c4ccccc4Cl)cc(=O)[nH]3)c2)CC1
    2	-8
COc1ccc(OCC(O)CN2CCC(=O)N(CC(C)(C)C)Cc3cc4c(cc32)OCO4)cc1 (stereo unspecified)
    1	3
O=C(CN(Cc1ccccc1)c1nc(Cc2ccc(F)cc2)ns1)N1CCN(c2ccccc2F)CC1
    -13	-14
COCc1c(Br)c(C)nc(OCC(=O)N/N=C\c2ccc(-c3ccc(Cl)c(Cl)c3)o2)c1C#N
    10	14
Fc1cccc(F)c1Oc1ccc2c(-c3ccccc3)noc2n1
    1	-2
N#CCCN(CCC#N)C(=O)CN(CCO)c1cccc(F)c1
    0	-2
COc1cccc(C2CCN(C(=O)c3cnn4cc(C)cnc34)C2)c1OC (stereo unspecified)
    4	2
CCOC(=O)c1nn(-c2ccccc2)c(=O)cc1OS(=O)(=O)c1cc(C(C)C)ccc1OCC
    9	5
C=CCCC(=O)Nc1sc2c(c1C(=O)OCC)Cc1ccccc1-2
    4	-2
Cc1[nH]c2ccccc2c1C(=O)N1CCN(CC(F)(F)F)CC1
    5	1
O=C(Nc1nncs1)C1CC1c1cccc(Cl)c1Cl (stereo unspecified)
    7	4
CC1CN(c2cc(Cl)nc(SCC(=O)N(CCC#N)Cc3cccnc3)n2)CCN1C(=O)C1CCCCC1 (stereo unspecified)
    -2	2
CCn1c(SCC(=O)Nc2cc(C)ccc2C)nnc1-c1cccs1
    15	6
O=C(COc1ccccc1O)N1CCc2c(ncnc2N2CCOCC2)C1
    2	-2
Cc1nn(C)c(C)c1CCC(=O)N(C)C1CCCN(CCc2ccccc2)C1 (stereo unspecified)
    1	-1
CCCCCCn1c(-c2cccs2)n[nH]c1=S
    -6	-9
Cn1c(=O)n(CCCc2ccccc2)c(=O)c2c1nc1n2CCCN1CCc1ccccc1
    7	9
CCS(=O)(=O)c1ncc(CN2CCN(c3ccccc3)CC2C)n1CCOC (stereo unspecified)
    -2	-2
CCOC(=O)C1CCN(C(=O)c2c(C)c(C)c(C)n2Cc2cccc(C)c2)CC1
    -5	-2
CC(=O)c1cccc(NC(=O)c2c(-c3ccccc3)noc2C)c1
    -3	-3
O=C1CC(c2ccc(Cl)cc2)CC2=Nc3ccccc3NC(c3ccccc3C(F)(F)F)C12 (stereo unspecified)
    -10	-14
COc1ccc(C(=O)n2nc(C)c(C(N)=O)c2N)cc1OC(F)F
    1	1
COC(=O)c1ccc(S(=O)(=O)Nc2cccc(S(=O)(=O)N(C)C)c2)cc1
    0	2
N#C/C(=C\c1ccc(O)cc1)C(=N)C(C#N)C#N
    1	-19
C/C=C/COC(=O)C1=C(C)NC(=O)NC1c1ccc2c(c1)OCO2 (stereo unspecified)
    -5	-8
Cc1ccc(NC(=O)COc2coc(CN3CCc4ccccc4C3)cc2=O)c(C)c1
    3	0
Nc1c(C(=O)C2CC2)sc2nc3c(cc12)CCC3
    3	1
CC(=O)c1ccc(NC(=O)C(C)Sc2ncn[nH]2)cc1 (stereo unspecified)
    -13	-21

Among those listed so far, five have a tert-butyl group:
Below each compound – NPYLR7 agonist	NPYLR7 agonist max-min
CC(C)(C)c1ccc(S(=O)(=O)NC(=O)C2(C)CCN2C(=O)C2CC2)cc1 (stereo unspecified)
    3	4
Cn1c(=O)c2c(SCC(=O)NC3(C#N)CCCC3)nc(C(C)(C)C)nc2n(C)c1=O
    -3	-3
CC(C)(C)OC(=O)N1CCCC1C(=O)Oc1cc2oc(=O)c3c(c2cc1Cl)CCC3 (stereo unspecified)
    1	38
COc1ccc(Oc2cc(C(C)(C)C)nc(SCc3ccc(F)cc3)n2)cc1
    3	8
COc1ccc(OCC(O)CN2CCC(=O)N(CC(C)(C)C)Cc3cc4c(cc32)OCO4)cc1 (stereo unspecified)
    1	3
